Bioassay records deposited in PubChem BioAssay by several laboratories.
Rce1 inh: yeast Rce1p protease inhibitors, primary screen, biochemical, fluorescence, cell-free homogeneous | CAAX prenyl protease 2 (Saccharomyces cerevisiae (strain ATCC 204508 / S288c)), Q03530 | yeast membranes, quenched prenylated peptide cleavage fluorescence | calls only | 0.27% of 290,000 active;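 active = fall in fluorescence gain of 50% or more versus controls, with final raw signal at or below 3038400; inconclusive = same 50% fall but final raw signal above 3038400; inactive = fall in fluorescence gain under 50%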;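 also: plate controls were neutral control wells for no effect and wells lacking membranes for full effect; tested at 10 µM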
Yeast UUG start: modulators of yeast start codon fidelity, primary screen, whole organism, S. cerevisiae, single point, plate reader; activity score, % at 18.7 µM; S. cerevisiae UUG-firefly luciferase reporter, luminescence/redox ratio; 0.13% of 350,000 active;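 active = replicate mean at a twofold rise or more, about +100% in these data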;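 also: firefly luciferase made from a UUG start codon reports start codon fidelity; reporter light over untreated wells divided by growth signal over untreated wells; some hits fall short of that in this replicate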
eIF4H FP inh: human eIF4H binding inhibitors, primary screen, translation initiation inhibitor project, biochemical, uHTS, fluorescence polarization. eIF4H fluorescence polarization binding assay. 0.94% of 290,000 active. inhibition, % at 35 µM. Eukaryotic translation initiation factor 4H (Homo sapiens), Q15056;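 active = 50% or more with normal probe brightness, or confirmed in later tests; inconclusive = above 50% with abnormal brightness, or retests that disagree; inactive = below 50% or failed in later tests; about a fifth of its hits are not listed in these tables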;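 also: calls also rest on retests at 20 µM and on dose response follow-up; 0% = protein and probe with vehicle and 100% = probe without protein; strong numbers were not always called active; many hits fall short of the cut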
CSC inhib: cancer stem cell viability inhibitors, primary screen, luminescence. cancer stem cell-like cells viability. inhibition, % at 7.5 µM. 1.1% of 300,000 active;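 active = mean at 75% or more and at least half the replicates too; inconclusive = mean and replicates disagree; tested in HMLE shEcad cells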;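 also: 0% = median of negative and 100% = median of positive control wells; the first replicate is given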
MT1-MMP act inh: blockers of MT1-MMP proenzyme processing, primary screen, HT1080 RFP-PRO-GFP cells, GFP/RFP fluorescence | 0.061% of 360,000 active | GFP/RFP ratio fluorescence, overnight; percent of plate control window, DMSO zero | GFP/RFP ratio change, % at 20 µM | Matrix metalloproteinase-14 (Homo sapiens), P50281;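 active = GFP/RFP ratio change of at least 30% with cell ATP level not reduced by more than half and red fluorescence within 50% of control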; also: strong numbers were not always called active
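Test system: HT1080 RFP-PRO-GFP cells; Benchmarks: DMSO and RFP-L50D-GFP cell wells; Timing: cells overnight before dosing, compound overnight, 37 °C, 5% CO2; Compound: one 20 µM compound dose with 1% DMSO; Read-out: GFP/RFP fluorescence ratio.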
PABP FP inh: PABP poly(A) RNA binding inhibitors, primary screen, biochemical, fluorescence polarization, uHTS; Polyadenylate-binding protein 1 (Homo sapiens), P11940; inhibition, % at 35 µM; 1% of 290,000 active;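 active = 50% or more with normal probe brightness, or confirmed in later tests; inconclusive = above 50% with abnormal brightness, or retests that disagree; inactive = below 50% or failed in later tests; about a fifth of its hits are not listed in these tables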;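 also: calls also rest on retests at 20 µM and on dose response follow-up; controls were probe without protein and protein plus probe with vehicle; some compounds called inactive have numbers as strong as hits; many hits fall short of the cut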
Target sequence (P11940 whole entry, looked up): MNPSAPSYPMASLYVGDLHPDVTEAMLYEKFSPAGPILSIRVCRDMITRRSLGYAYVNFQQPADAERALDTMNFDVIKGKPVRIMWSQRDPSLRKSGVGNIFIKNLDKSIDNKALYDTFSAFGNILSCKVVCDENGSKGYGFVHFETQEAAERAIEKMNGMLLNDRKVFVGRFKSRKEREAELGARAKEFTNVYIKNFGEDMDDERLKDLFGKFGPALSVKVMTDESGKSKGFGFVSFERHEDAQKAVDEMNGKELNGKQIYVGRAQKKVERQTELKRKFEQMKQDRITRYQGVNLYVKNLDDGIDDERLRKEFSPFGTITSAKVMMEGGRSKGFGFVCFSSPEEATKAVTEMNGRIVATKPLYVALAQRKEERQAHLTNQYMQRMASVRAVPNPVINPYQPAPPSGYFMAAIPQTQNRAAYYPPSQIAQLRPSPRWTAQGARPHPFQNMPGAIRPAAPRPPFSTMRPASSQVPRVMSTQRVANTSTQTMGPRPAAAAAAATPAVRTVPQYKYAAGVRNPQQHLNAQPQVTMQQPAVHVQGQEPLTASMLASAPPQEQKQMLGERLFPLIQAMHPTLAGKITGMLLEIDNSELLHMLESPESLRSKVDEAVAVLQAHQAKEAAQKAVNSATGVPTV
Env fusion inh: inhibitors of HIV-1 Env-driven cell-cell fusion, primary screen, HeLa-JRFL effector, CEM21 target cells, luciferase; AID 651610, 2012; inhibition, % at 12.3 µM; 1.1% of 360,000 active;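 active = mean replicate inhibition score of at least 50 and every replicate individually at or above 50; inconclusive = only one of the two criteria met; inactive = mean below 50 and not all replicates reaching 50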;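 also: 0% = plate neutral controls and 100% = maraviroc near 300 nM; one replicate is shown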
MT1-MMP act inh RFP: second read-out of MT1-MMP act inh, no call of its own (marks repeat the call); RFP signal change, %; measured here: RFP expression control read;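 0 = vehicle wells; hits needed this value within 50% of zero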
Numbers without * were called inactive; i = inactive; u = inconclusive; x = no result given.

SMILES | Rce1 inh | Yeast UUG start | eIF4H FP inh | CSC inhib | MT1-MMP act inh | MT1-MMP act inh RFP | PABP FP inh | Env fusion inh
CC(=O)Nc1ccc(S(=O)(=O)N2CCN(C(=O)c3ncoc3-c3cccc(F)c3)CC2)cc1 | i | -4 | -5 | 8 | 3 | -4 | 2 | 12
CN(C)C(=O)CN1CCN(c2nc3nonc3nc2N2CCCCC2)CC1 | i | x | 30 | -4 | -1 | 3 | 10 | 21
OC(Cc1cccc(C=NN2CCOCC2)n1)(C(F)(F)F)C(F)(F)F | x | 3 | x | x | -3 | 7 | x | -1
Cc1cccc(CNc2ccc(C(CC(N)=O)NC(=O)c3cccc(Br)c3)cc2[N+](=O)[O-])c1 (stereo unspecified) | i | -3 | -12 | 8 | 8 | 0 | -6 | 0
Cc1cc(/C=N\NC(=O)CC(=O)NC2CCCCC2)c(C)n1-c1ccc(Cl)c(Cl)c1 | i | 5 | 6 | -5 | -6 | -4 | -4 | 2
CC1CN(C(=O)c2cc3c(=O)n4ccccc4nc3s2)CC(C)O1 (stereo unspecified) | i | 5 | 0 | 2 | 14 | 1 | -2 | 6
Cc1oc(C(C)(C)C)cc1C(=O)NCC(=O)NCC(=O)O | i | -3 | -9 | 7 | -1 | 4 | -3 | x
O=C(NC1CCCC1)C(c1ccncc1)N(Cc1ccccc1F)C(=O)c1csnn1 (stereo unspecified) | i | -18 | -19 | -2 | -3 | -1 | 6 | 33
O=C(c1nnc(-c2ccc(Cl)cc2)o1)C1CCCC1 | i | -15 | -1 | 0 | -1 | -3 | -11 | -22
CCOC(=O)c1ccc(NC(=O)CSC2=NN3CCCC(=O)N=C3S2)cc1 | i | -6 | -7 | -4 | -2 | -14 | -6 | 1
Cc1onc(-c2ccccc2Cl)c1C(=O)N1CCCc2ccccc21 | i | 3 | -7 | 9 | 1 | -3 | 0 | x
COc1ccc(OC)c(S(=O)(=O)N/N=C(/C)c2c[nH]c3ccccc23)c1 | i | -7 | -7 | -7 | 0 | -1 | -6 | x
COc1ccc(NS(=O)(=O)c2ccc(C)c(C(=O)N3CCCCCCC3)c2)cc1 | i | 17 | x | 3 | -1 | 1 | x | 4
O=C(COC(=O)c1ccccn1)NCc1cccc(Cl)c1 | x | -8 | x | x | 0 | 4 | x | 16
Cc1cc(C(O)c2ncc(-c3ccc(Cl)cc3)[nH]2)ccc1F (stereo unspecified) | x | -3 | x | x | 3 | -5 | x | 15
C/C(=N/NS(=O)(=O)c1ccc(Cl)cc1)c1cccc(O)c1 | x | -18 | 5 | -8 | 0 | -3 | 0 | x
O=C(COc1cccc2ccccc12)N1CCN(c2ccccn2)CC1 | i | -8 | -4 | -28 | -2 | 2 | -8 | x
CCOc1ccc(C(=O)NC(C)(C)CC)cc1 | i | x | -4 | -12 | -2 | 1 | 69* | 8
COC(=O)c1ccc2nc(NC(=O)CN3C(=O)CCC3=O)sc2c1 | i | 14 | 8 | -6 | 2 | 3 | -10 | x
COc1ccc(C(CNC(=O)Nc2cccc(C)c2)N2CCN(C)CC2)cc1 (stereo unspecified) | i | 2 | 5 | -2 | 1 | 6 | -2 | -7
Cc1c(C(=O)CN2CCSCC2)c2ccccc2n1C | i | -20 | 9 | 4 | 6 | 6 | -8 | 20
O=C(CSc1nc2ccccc2s1)NC(=O)NCc1ccco1 | i | -23 | x | 5 | 4 | 7 | x | -85
O=C(Nc1ccccc1-c1ccccc1)c1cnccn1 | i | -5 | -6 | 26 | 4 | 4 | 4 | x
O=C(c1cccs1)N1CCN(Cc2ccccn2)CC1 | i | 0 | -5 | -18 | 1 | 0 | 7 | 4
Cc1ccc(S(=O)(=O)NC(C(=O)N2CCN(S(=O)(=O)c3cccc(F)c3)CC2)C(C)C)cc1 (stereo unspecified) | x | -15 | x | x | -5 | -3 | x | 29

Carrying on.
SMILES | Rce1 inh | Yeast UUG start | eIF4H FP inh | CSC inhib | MT1-MMP act inh | MT1-MMP act inh RFP | PABP FP inh | Env fusion inh
CSc1ccc(CN(C)C(=O)C(Cc2ccccc2)NC(=O)c2ccccc2)cc1 (stereo unspecified) | i | 5 | -4 | 20 | -8 | -9 | 18 | 2
N#Cc1c(Cl)cccc1N1CCCC1 | x | -24 | 10 | -8 | -1 | 3 | -6 | 3
O=C(CC1(O)C(=O)Nc2ccccc21)c1ccccc1 (stereo unspecified) | i | -10 | -4 | -8 | -2 | 4 | 2 | -12
O=C(O)CSc1nnc(-c2ccccc2O)n1Cc1ccccc1 | i | -10 | -4 | -18 | 10 | 7 | 7 | -23
COc1ccc(-c2noc(CCC(=O)NC3CCN(Cc4ccccc4)CC3)n2)cc1 | i | x | -1 | -11 | -1 | -5 | -5 | 20
CCOC(=O)C1=C(O)/C(=C/c2ccc(OCC(=O)O)c(OCC)c2)SC1=Nc1ccc(C)cc1 | i | x | 4 | 2 | -1 | 1 | 12 | 10
Cc1cccc(-n2ccnc2SCC(=O)Nc2nccs2)c1 | i | -3 | 4 | 14 | 2 | 5 | 3 | x
C/C(=N\NC(=O)c1ccn[nH]1)c1cn(C)nc1C | i | 3 | 2 | 4 | 4 | 3 | 9 | -13
CSc1nc2ccc(NS(=O)(=O)c3cccc(Cl)c3Cl)cc2s1 | i | -11 | -2 | 43 | -2 | -2 | 1 | 8
CCc1nnc(NC(=O)CCC(=O)NCc2ccc(OC)cc2)s1 | i | -14 | -1 | -17 | 1 | 5 | -5 | 8
Cc1ccc(C(=O)Nc2ccc(S(=O)(=O)N3CCCC3)cc2)o1 | i | -20 | -2 | -2 | 2 | 8 | 0 | 6
C/C(=N\N1CCN(Cc2ccccc2)CC1)c1ccco1 | i | x | -3 | 6 | 7 | 8 | 2 | 9
O=C(c1ccco1)N1CCN=C1SCc1ccccc1F | i | -26 | -7 | -4 | -1 | 2 | -2 | -11
CC1CCCCC12NC(=O)N(CC(=O)OCC(=O)NCc1ccc(F)cc1)C2=O (stereo unspecified) | x | -14 | x | -2 | -2 | 1 | x | -11
C/C(=N\NC(=O)Cn1nc(C)c(Br)c1C)c1cccs1 | i | 2 | -2 | 13 | 1 | 3 | 1 | -6
CCCC(=O)N1CCCC1(C)C(=O)NCc1ccc(F)cc1Cl (stereo unspecified) | x | -11 | x | x | -2 | 3 | x | 7
CCn1c(=S)[nH]c2cc(Cl)ccc21 | i | x | -1 | -7 | 1 | 2 | -10 | 42
O=C(Nc1cccc2ccccc12)C1CCN(C(=O)NCc2ccccc2)CC1 | i | -5 | -4 | -4 | -14 | 4 | 3 | -92
COc1ccc(-c2nc(C)ncc2-c2ccc(Cl)cc2)c(O)c1 | i | -13 | -6 | -1 | 0 | -6 | -4 | 11
N#CCC(=O)Nc1ccc(C(=O)OCC(=O)N2CCN(C(=O)c3ccco3)CC2)cc1 | x | -15 | x | 1 | 3 | 5 | x | -2
COC(=O)c1ccc(CN2C(=O)C(C)ON=C2c2ncccc2C)o1 (stereo unspecified) | x | -19 | x | x | 2 | 4 | x | -27
Cc1ccc2oc(=O)c3cnn(CC(=O)Nc4cc(-c5cccc(F)c5)no4)c3c2c1 | i | 5 | 8 | 22 | 5 | -4 | -3 | -8
Cc1c(Cl)cccc1NC(=S)N1CCN(S(=O)(=O)c2cccs2)CC1 | i | x | 24 | -6 | -2 | 0 | -5 | 1
CC1CCCC2(C1)NC(=S)N(c1ccccc1)N2 (stereo unspecified) | i | -11 | 1 | 8 | -6 | 2 | 0 | x
O=C(CC1C(=O)NCCN1CC(c1ccccc1)c1ccccc1)NCC1CCOCC1 (stereo unspecified) | i | -1 | 25 | -10 | -2 | 4 | 12 | 8

Additional compounds follow.
SMILES | Rce1 inh | Yeast UUG start | eIF4H FP inh | CSC inhib | MT1-MMP act inh | MT1-MMP act inh RFP | PABP FP inh | Env fusion inh
CN(CC(=O)Nc1cccc(F)c1)C(=O)/C=C/c1cc(Br)ccc1OC(F)F | i | -11 | x | x | 5 | -4 | x | 14
O=C(c1ccc2c(=O)n3c(nc2c1)CCCCC3)N1CCN(c2ccc(F)cc2)CC1 | i | -6 | 3 | 58 | -2 | 0 | 0 | 5
O=C(Oc1cccc(Br)c1)c1cccnc1 | i | -17 | -4 | -3 | 2 | -1 | -2 | -58
O=C(O)c1cccc(Cn2c(Cl)c(/C=N/NC(=O)c3ccccc3)sc2=O)c1 | i | -16 | -6 | -4 | 1 | 6 | 4 | x
CCOC(=O)NC(=O)COC(=O)c1ccc(Sc2ncn[nH]2)c([N+](=O)[O-])c1 | i | x | 6 | 8 | 1 | 4 | -3 | 16
O=c1c(F)cn(C2CCCO2)c(=O)n1Cc1c(F)cccc1Cl (stereo unspecified) | i | -6 | 13 | 6 | 3 | 2 | -2 | -64
Cc1nc2cc(Cl)c(Cl)cc2nc1C | i | -2 | -2 | 11 | 0 | 4 | 4 | -43
Cc1cccc(NC(=O)C2CCCN2S(=O)(=O)c2ccc(Cl)cc2)n1 (stereo unspecified) | i | 5 | -17 | -10 | 0 | 1 | -16 | x
O=C(COc1ccc(Cl)cc1Cl)NC(=O)c1ccccc1 | i | -18 | -7 | x | -4 | -1 | -10 | -1
COc1ccc(-c2noc(CCC(=O)N3CCN(c4cccc(OC)c4)CC3)n2)cc1 | x | -7 | x | x | 5 | -4 | x | 1
NC(=O)CSc1nc2cc([N+](=O)[O-])ccc2n1-c1cccc(C(F)(F)F)c1 | i | 15 | -12 | x | -1 | 0 | -13 | 22
Cc1ccccc1NC(=O)c1sc2nc[nH]c(=O)c2c1C | i | -3 | 2 | 8 | 26 | -1 | 8 | 1
CCOC(=O)N1CCN(C(=O)c2cc3cc(C)ccc3[nH]2)CC1 | i | -4 | -5 | -15 | -1 | 2 | 4 | -3
CC(=O)c1c(C)[nH]c(C(=O)OCC(=O)NCc2ccc(Cl)cc2)c1C | x | -8 | x | x | -3 | -17 | x | u
O=C(COn1nnc2ccc(Cl)cc21)NC12CC3CC(CC(C3)C1)C2 | i | x | -7 | 2 | 3 | -3 | 0 | u
Cc1c(NC(=O)Nc2ccccc2)c(=O)n(-c2ccccc2)n1C | i | -7 | -4 | -1 | 3 | 3 | 0 | 14
CC(NC(=O)CNC(=O)c1sc2ccccc2c1Cl)c1cccnc1 (stereo unspecified) | x | 4 | 6 | -10 | 0 | -1 | 6 | 1
Cc1nnnn1/C(=C\c1ccccc1)C(=O)OCC(=O)NC(C)(C)C | i | -15 | -10 | -12 | -7 | -9 | 0 | x
O=C(Nc1ccc(Cl)cc1C(=O)NCC1CCCO1)c1ccco1 (stereo unspecified) | i | -8 | -9 | x | 0 | 4 | -1 | -9
CCOC(=O)N1CCN(C(=O)COc2ccc3c(c2)C(=O)CC2(CCN(C(C)=O)CC2)O3)CC1 | i | 2 | -4 | -1 | -4 | -2 | 1 | -25
